# GIV-Gai inh – inhibitors of GIV peptide binding to Galpha-i3, primary screen, biochemical, fluorescence polarization, FITC-GIV GBA peptide, rat Galphai3 | Guanine nucleotide-binding protein G(i) subunit alpha-3 (Rattus norvegicus), P08753 | 90 min; hits give low values; scaled: aluminum fluoride 0%, vehicle 100% | percent of control (FP), % (test concentration not listed) | 0.42% of 210,000 active | AID 1224905, 2016;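 active means replicate mean at 85% of control or lower, very high polarization wells dropped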;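 further: wells of about 15 µL received 100 nL stock; the first replicate is given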
# Target sequence (P08753 whole entry, looked up): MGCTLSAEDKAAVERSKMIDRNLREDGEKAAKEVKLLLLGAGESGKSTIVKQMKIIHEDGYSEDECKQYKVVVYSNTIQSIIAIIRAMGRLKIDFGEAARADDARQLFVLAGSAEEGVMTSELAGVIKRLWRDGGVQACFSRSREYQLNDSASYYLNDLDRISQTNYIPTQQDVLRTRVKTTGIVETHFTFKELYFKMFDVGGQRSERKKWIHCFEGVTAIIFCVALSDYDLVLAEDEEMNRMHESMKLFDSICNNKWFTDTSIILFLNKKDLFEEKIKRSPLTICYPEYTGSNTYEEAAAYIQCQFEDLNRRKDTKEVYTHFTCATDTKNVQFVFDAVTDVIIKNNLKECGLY
# An asterisk follows results filed as active; & = joins results of further samples. The list is partial; count on the stated rates, not on these rows.
SMILES,GIV-Gai inh
Cc1cc2c(cc1C)NC1(CCCCC1)C(=NCc1cc(F)cc(F)c1)N2,98.7
O=C(CSC1=NS(=O)(=O)c2ccccc2N1)NCc1ccc(Cl)cc1,102.0
COc1ccc(C2CC(C(F)(F)F)n3nc(C(=O)NCc4cccc(Cl)c4)cc3N2)cc1 (stereo not drawn),107.8
O=C(Cn1nc2c3sccc3ncn2c1=O)NCc1ccc(Cl)cc1,95.5
CCOC(=O)CSc1nc2cc(C(=O)Nc3ccc(OC)c(OC)c3)ccc2c(=O)n1Cc1ccccc1,110.7
CN(c1ccc(Br)cc1)S(=O)(=O)c1ccc2[nH]cc(C(=O)NCCCN3CCOCC3)c(=O)c2c1,112.6
O=C(NCc1c(-c2ccccc2)nc2n1CCS2)c1ccc(F)c(F)c1,96.0
CCOC(=O)C1=C(O)/C(=C/c2cc(OC)c(OC)c(OC)c2)SC1=Nc1ccc([N+](=O)[O-])cc1,106.7
CCCCCCCCc1ccc(-c2ccc(C(=O)OC3CC(C)CCC3C(C)C)cc2)cc1 (stereo not drawn),106.9
COc1ccc(NC(=O)Nc2nnc(SCC(=O)NCc3ccccc3)s2)cc1,96.9
CCOc1ccc(NC(=O)CSc2nc3cc(C(=O)NCC4CCCO4)ccc3c(=O)n2Cc2ccco2)cc1 (stereo not drawn),100.5
c1ccc(Cc2nc3c4c(-c5ccccc5)c(-c5ccccc5)oc4ncn3n2)cc1,117.2
Cc1nn(-c2nc3ccccc3[nH]2)c2c1C(c1c(C)sc3ccccc13)CC(=O)N2 (stereo not drawn),106.5
Cc1ccc2c(c1)N(C(=O)CN1C(=O)c3ccccc3C1=O)C(C)(C)c1ssc(=S)c1-2,107.4
CN(CC1CCCO1)S(=O)(=O)c1ccc(C(=O)Nc2nc3cc4c(cc3s2)OCO4)cc1 (stereo not drawn),99.9
CCOc1ccc(C2=NN3C(C2)c2cccc(OCC)c2OC3c2ccc(OC)c(OC)c2)cc1 (stereo not drawn),107.1
Cc1cc(N2CCOCC2)nc(N2CCN(C(=O)c3c(F)cccc3F)CC2)n1,103.7
O=S(=O)(NCc1ccco1)c1ccc2c(c1)-c1oncc1CO2,101.9
O=c1[nH]c(N2CCN(C3CCCCC3)CC2)nc2c(-c3ccc(Br)cc3)csc12,140.6
Cc1ccc(C)c(-n2ncc3c(N4CCN(C)CC4)ncnc32)c1,97.2
CCCCNC(=O)c1cc2c(s1)CN(C1CC1)C2,107.4
COc1cccc(NC(=O)CC2CCN(S(=O)(=O)c3ccc4c(c3)CCN4C(C)=O)CC2)c1,102.7
O=[N+]([O-])/C(C(Cl)=C(Cl)Cl)=C(\Nc1ccc(Br)cc1)Sc1ccccc1,102.7
Cn1c(=O)c([N+](=O)[O-])c(N2CCCCC2)c2ccccc21,104.3
O=C(Nc1cnn(-c2ncc(N3CCCCC3)cn2)c1)C1CCOC1 (stereo not drawn),106.6

# Following part
SMILES,GIV-Gai inh
Cc1ccc(-c2[nH]nc3c2C(c2ccc(OC(=O)c4ccco4)cc2)C(C#N)=C(N)O3)cc1 (stereo not drawn),113.8
COc1ccc2c(c1)C(=NNC(N)=S)c1cc(OC)ccc1-2,100.6
Cc1ccc(NC(=O)c2cn(-c3cc(-c4noc(C5CC5)n4)ccc3C)nc2C)c(C)c1,100.5
CCOc1cc(CN2CCCC2c2cc(C(C)C)on2)ccc1O (stereo not drawn),113.1
O=C1c2ccccc2-c2onc3c(Oc4ccc(Cl)cc4)cc(Oc4ccc(Cl)cc4)c1c23,107.2
COc1ccc(CCC(=O)Nc2ccc(-c3ccc4ccccc4n3)cc2)cc1,105.1
O=C(c1ccc(Cn2c(=S)[nH]c3ccc(Br)cc3c2=O)cc1)N1CCN(c2ccccn2)CC1,112.7
Cc1ccc(NC(=O)CSc2nc3ccccc3c(=O)n2CCC(=O)N2CCN(c3ccccc3)CC2)cc1,109.9
Cc1ccc(S(=O)(=O)Nc2ccc(-c3ccc4ccccc4n3)cc2)cc1C,106.6
COc1ccc2c(c1)-c1c(ssc1=S)C(C)(C)N2C(=O)C(C)N1C(=O)c2ccccc2C1=O (stereo not drawn),115.4
COCCNC(=O)C1CCc2sc(C(=O)N3CCC(C)CC3)cc2C1 (stereo not drawn),102.7
CC1(C)CN(CC(=O)N2CCCC2)c2ccc(S(=O)(=O)N3CCCC3)cc21,107.3
Cc1ccn2c(=O)cc(COc3cccc(NC(=O)C(C)(C)C)c3)nc2c1,102.3
Cc1cc2c(cc1C)C(c1ccc(F)c(F)c1)CC(=O)N2 (stereo not drawn),106.5
Cc1ccc(NC(=O)c2c(NC(=O)c3ccccc3Cl)sc3c2CCCCC3)c(C)c1,115.3
CCc1nnc(-c2ccc(S(=O)(=O)N3CCN(C(C)C)CC3)o2)o1,108.6
CCCCN1CCN(S(=O)(=O)c2cc(-c3nc(C)cs3)n(CC(=O)N3CCCCC3)c2)CC1,103.5
O=C(Cc1c(Sc2ccccc2)c2ccccc2n1Cc1ccccc1)Nc1ccccc1,99.7
Cc1cc(-c2cc(S(=O)(=O)NC3CCCCCC3)c(C)s2)n[nH]1,99.0
CCOC(=O)c1sc(NC(=O)C(CC)Sc2nnc3c4ccccc4n(C)c3n2)nc1C (stereo not drawn),113.6
Cc1ccc(C2CC(C(F)(F)F)n3ncc(C(=O)Nc4sc5c(c4C#N)CCC(C(C)(C)C)C5)c3N2)cc1 (stereo not drawn),103.3
COc1cc(OC)c(C2C(C#N)=C(N)Oc3n[nH]c(-c4cccs4)c32)cc1OC (stereo not drawn),109.4
CC(C)c1ccc(C2c3c(-c4ccccc4)n[nH]c3C(=O)N2c2ccccc2)cc1 (stereo not drawn),105.0
Fc1cc2c(c(Cn3c4ccccc4c4nc5cc(F)ccc5nc43)c1)OCOC2,120.2
CC1CCCCN1S(=O)(=O)c1cc(-c2nnc(C3CCCC3)o2)co1 (stereo not drawn),102.6

# An excerpt from above in order of their number in GIV-Gai inh, ascending:
SMILES,GIV-Gai inh
COc1ccc2c(c1)C(=NNC(N)=S)c1cc(OC)ccc1-2,100.6
Cc1ccn2c(=O)cc(COc3cccc(NC(=O)C(C)(C)C)c3)nc2c1,102.3
CC(C)c1ccc(C2c3c(-c4ccccc4)n[nH]c3C(=O)N2c2ccccc2)cc1 (stereo not drawn),105.0
COc1ccc(CCC(=O)Nc2ccc(-c3ccc4ccccc4n3)cc2)cc1,105.1
Cc1ccc(NC(=O)c2c(NC(=O)c3ccccc3Cl)sc3c2CCCCC3)c(C)c1,115.3
Fc1cc2c(c(Cn3c4ccccc4c4nc5cc(F)ccc5nc43)c1)OCOC2,120.2

# The list continues:
SMILES,GIV-Gai inh
Cc1cc(NC(=O)CSc2nc3ccccc3c(=O)n2NC(=O)CCc2c[nH]c3ccccc23)no1,111.1
COc1ccc(NC(=O)c2sc(=S)n(-c3ccccc3)c2N)c(OC)c1,113.8
O=C(c1ccccc1F)N1N=C(C(F)(F)F)CC1(O)c1ccccc1 (stereo not drawn),105.6
CCN(CC)c1cc(C)nc2nc(CN3CCCC(C)C3)nn12 (stereo not drawn),106.3
CCOC(=O)C1CCCN(C(=O)C2CCN(c3nn4c(=O)c5c(nc4s3)CCCC5)CC2)C1 (stereo not drawn),105.3
Cc1ccc(C2=C/C(=C3/c4ccccc4-c4ncccc43)C(=O)O2)cc1C,110.9
CCOCc1nc(-c2cccc(-c3ccn[nH]3)c2)no1,95.8
Cc1ccc(CS(=O)(=O)Nc2ccc3c(c2)nc(-c2ccc(C(=O)NC(C)C)cc2)n3C)cc1,100.3
O=C1c2ccccc2C(=O)C12OC(c1ccc(F)cc1)C1(C(=O)c3ccccc3C1=O)C2c1ccc(Cl)cc1 (stereo not drawn),104.8
O=c1c2cc(N3CCOCC3)ccc2nc(SCc2cc(=O)n3cc(Cl)ccc3n2)n1Cc1ccccc1,121.5
Cn1nnc2c(Nc3cc(F)ccc3F)ncnc21,108.7
O=[N+]([O-])c1cc(-c2nc(-c3ccccc3)c(-c3ccc(Oc4ccccc4)cc3)[nH]2)ccc1Br,107.7
Cc1ccc(-n2c(N)c(C(=O)Nc3ccccc3)sc2=S)cc1C,106.1
COC(=O)c1cc(NC(=O)c2cnn3c(C(F)(F)F)cc(-c4ccco4)nc23)cc(C(=O)OC)c1,119.2
CCOC(=O)C1CCCN(C(=O)c2c[nH]c3ccc(S(=O)(=O)N(C)c4cc(C)ccc4C)cc3c2=O)C1 (stereo not drawn),104.1
Cn1c(=O)c2c(nc(Cl)n2CC(=O)c2ccc(Br)cc2)n(C)c1=O,110.8
Cc1ccc(CNC2=NCCNC23CCN(S(=O)(=O)c2ccc(C)cc2)CC3)cc1,102.0
CCC(C)(C)NC(=O)c1ccc(-c2cc(N3CCCC3)ncn2)cc1,129.1
Cc1cccc(C)c1NS(=O)(=O)c1cc(-c2cc(C(F)(F)F)on2)sc1C,98.9
O=C(Nc1ccc(F)cc1)C1CC(=O)N(Cc2ccccc2)C(=Nc2ccccc2)S1 (stereo not drawn),100.1
Cc1nn(-c2nc3ccccc3o2)c2c1C(c1ccc(F)cc1)CC(=O)N2 (stereo not drawn),101.0
CCOC(=O)C1=C(C)NC(=O)NC1c1ccc(OCC(=O)N2CCCCC2)c(OC)c1 (stereo not drawn),104.3
O=C(Nc1nc2c(s1)CN(S(=O)(=O)c1ccccc1)CC2)C1COc2ccccc2O1 (stereo not drawn),104.9
Cc1ccc(-n2ncc3c(Nc4ccc(S(N)(=O)=O)cc4)ncnc32)cc1,96.5
CCOc1ccc(CN2C(=O)c3ccccc3CC2(C)C(=O)NCc2ccc(Cl)cc2)cc1 (stereo not drawn),107.2

# (listing goes on)
SMILES,GIV-Gai inh
Cc1c(CC(Cl)(Cl)Cl)c2c(n1-c1ccc(F)cc1)CCCC2=O,104.4
Cc1nn(-c2cccc(F)c2)c2sc(C(=O)Oc3cccc(F)c3)cc12,106.5
CCOC(=O)c1ccccc1NC(=O)c1sc(NC(=O)c2ccc(OC)c(OC)c2)c(C(=O)OCC)c1C,98.0&104.6
NC(C/C=C/CC(N)C(=O)O)C(=O)O (stereo not drawn),100.8
O=P(COc1ccccc1CP(=O)(c1ccccc1)c1ccccc1)(c1ccccc1)c1ccccc1,102.2
O=C(CCn1c(=O)c2ccccc2n2c(SCC(=O)NC3CCCC3)nnc12)NC1CCCC1,97.6
CC1=NS(=O)(=O)c2cccnc2N1c1ccccc1,102.5
O=C(Nc1ccc(Cl)cc1)N1CCC2(CC1)Nc1ccccc1-n1cccc12,110.6
O=C(NCc1ccc(-c2noc(C3CCCO3)n2)s1)C1CC1 (stereo not drawn),103.2
Cc1ccc(-c2noc(-c3ccc(=O)n(CC(=O)NCc4ccc5c(c4)OCO5)c3)n2)cc1,99.0
O=C(CCc1nc(CSc2nc(-c3ccc(Cl)cc3)cs2)no1)Nc1nccs1,106.2
Cc1nn(-c2ccccc2)c2c1C1(C(=O)Nc3ccc(F)cc31)C(C#N)=C(N)O2 (stereo not drawn),104.5
Cc1ccc(-n2ccc(=O)c(-c3nc(-c4ccc(Cl)cc4)no3)n2)cc1,101.6
N#CC1=C(N)N(c2cc(C(F)(F)F)ccc2Cl)C2=C(C(=O)CCC2)C1c1ccsc1 (stereo not drawn),99.0
O=C(Cn1cnc2c(sc3ncccc32)c1=O)Nc1ccccc1F,103.6
CC(=O)C1=NN(c2ccc(Br)cc2)C2(S1)c1ccccc1C(c1ccc(C)cc1)=NN2c1ccccc1 (stereo not drawn),108.8
CCOC(=O)c1ccc(NC(=O)CSc2nc3ccccc3c(=O)n2CCCC(=O)NCCCN2CCCC2=O)cc1,113.5
COCc1[nH]nc2c1C(c1ccc(OC(=O)N3CCOCC3)c(OC)c1)C(C#N)=C(N)O2 (stereo not drawn),117.2
Cc1cc(N2CCOCC2)n2nc(CN3CCC(Cc4ccccc4)CC3)nc2n1,98.2
O=C(Cn1c2c(c(-c3ccccc3Cl)cc1=O)CCC2)NC1CCCCC1,107.6
Cc1ccc2nc(-c3ccc(NC(=O)c4c(O)c5cccc6c5n(c4=O)CC6)cc3)sc2c1,104.0
O=C(CSc1nc2c(sc(=S)n2Cc2ccco2)c(=O)n1-c1ccc(F)cc1)NCc1ccco1,115.6
COc1cccc(-n2nnc3c(N4CCN(C(=O)COc5ccccc5F)CC4)ncnc32)c1,97.1
COc1ccc(C(=O)Cn2c(Br)nc3c2c(=O)[nH]c(=O)n3C)cc1,109.5
COc1ccc(C2=NN3C(C2)c2cccc(OC)c2OC3c2ccc(F)c(F)c2)cc1 (stereo not drawn),114.7

# Continued:
SMILES,GIV-Gai inh
O=C(CSc1nc2[nH]ncc2c(=O)n1-c1cccc2ccccc12)N1CCN(c2ccccc2)CC1,103.0
CCCC(=O)N1c2c(C)cc(C)cc2C2=C(SC(C(=O)OC)=C(C(=O)OC)C23SC(C(=O)OC)=C(C(=O)OC)S3)C1(C)C,113.3
COc1ccccc1N=Cc1ccc(O)c2c1OC(N)=C(C#N)C2c1cccc([N+](=O)[O-])c1 (stereo not drawn),127.5
Cc1onc(-c2ccccc2Cl)c1C(=O)Nc1c2c(nn1-c1ccc([N+](=O)[O-])cc1)CS(=O)(=O)C2,109.3
Cc1cccc(-c2noc(-c3cc(N4CCCC4)nc4ccccc34)n2)c1,114.9
COc1ccc(OCC(=O)Nc2ccc(N(C)C(C)=O)cc2)cc1,115.4
CCOc1cccc2c1OC(c1cc(OC)c(OC)c(OC)c1)N1N=C(c3cccnc3)CC21 (stereo not drawn),103.0
Cc1cccc(C2CC(=O)Nc3c2cnn3-c2nc3ccccc3s2)c1 (stereo not drawn),101.5
COC(=O)CSc1nnc2n(C3CCCCC3)c(=O)c3c4c(sc3n12)CCCC4,101.4
COc1cccc(N/C(SCc2ccc(Cl)cc2)=C(/C#N)C(=O)NCc2ccccc2)c1,106.7

# Five consecutive compounds out of the list so far, for reference:
SMILES,GIV-Gai inh
COc1ccc(OCC(=O)Nc2ccc(N(C)C(C)=O)cc2)cc1,115.4
CCOc1cccc2c1OC(c1cc(OC)c(OC)c(OC)c1)N1N=C(c3cccnc3)CC21 (stereo not drawn),103.0
Cc1cccc(C2CC(=O)Nc3c2cnn3-c2nc3ccccc3s2)c1 (stereo not drawn),101.5
COC(=O)CSc1nnc2n(C3CCCCC3)c(=O)c3c4c(sc3n12)CCCC4,101.4
COc1cccc(N/C(SCc2ccc(Cl)cc2)=C(/C#N)C(=O)NCc2ccccc2)c1,106.7
